Screening results as filed in PubChem.
PV pol inh – inhibitors of poliovirus RNA polymerase binding and polymerization. P03300. poliovirus polymerase elongation, fluorescence polarization; active compounds read low. % elongation, % (compound at 16.7 µg/mL). actives 0.66% (n = 150,000). AID 588519; in the data active means % elongation below about 90%; further: some results filed as inactive read as strong as hits
Target sequence (P03300 1749-2209 limits assumed): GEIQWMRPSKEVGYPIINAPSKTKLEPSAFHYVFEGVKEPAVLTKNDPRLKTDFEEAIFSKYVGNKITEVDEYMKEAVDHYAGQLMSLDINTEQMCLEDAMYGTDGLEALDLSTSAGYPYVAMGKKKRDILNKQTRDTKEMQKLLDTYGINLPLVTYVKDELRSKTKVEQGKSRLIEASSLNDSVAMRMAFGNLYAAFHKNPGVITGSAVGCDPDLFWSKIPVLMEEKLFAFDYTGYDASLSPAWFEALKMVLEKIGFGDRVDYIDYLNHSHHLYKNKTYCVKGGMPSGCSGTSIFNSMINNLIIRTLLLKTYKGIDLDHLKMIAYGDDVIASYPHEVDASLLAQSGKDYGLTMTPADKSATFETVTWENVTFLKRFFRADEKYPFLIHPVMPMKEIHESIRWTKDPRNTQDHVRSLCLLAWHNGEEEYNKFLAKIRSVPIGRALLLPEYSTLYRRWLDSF
PV pol inh intensity – also measured in PV pol inh; calls as there; % elongation; measured here: total intensity read-out; formula for this scale not given here;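 total fluorescence in place of polarization; lower means less elongation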
* = called active by the depositor. This is a subset (hit frequency here may not be typical).

Molecule	PV pol inh	PV pol inh intensity
COc1ccc(C(=O)Nc2nnc(S(=O)(=O)N3CCOCC3)s2)cc1	98	97
COc1ccc(NC(=O)Cn2c(=O)n(-c3ccccc3)c(=O)c3ccc(C(=O)NCc4ccc5c(c4)OCO5)cc32)cc1	101	94
CCc1nc2ccccc2n1CCCCOc1ccc(Cl)cc1	104	104
COc1ccc2oc(-c3ccc(C)c(NC(=O)Cc4ccc(Cl)cc4)c3)nc2c1	96	92
Cc1ccc(NC(=O)C2CCN(c3nc4ccccc4nc3C(F)(F)F)CC2)cc1F	114	114
COc1ccc(-c2c(C)nn3c(N4CCN(c5ccccc5)CC4)cc(C)nc23)cc1OC	106	108
CCOc1ccc(C2CC(=O)Nc3nc(SCc4ccccc4C)[nH]c(=O)c32)cc1OC (centres undefined)	106	103
CCOc1ccc(CNC(=O)C2CCN(S(=O)(=O)c3c(C)noc3/C=C/c3ccc(C)cc3)CC2)cc1OC	106	105
CC(C)Cn1cc(NC(=O)N2CCN(c3cccc(C(F)(F)F)c3)CC2)c2ccccc2c1=O	103	105
CC1CCN(c2nc3ccc(C(=O)NCc4ccc(Cl)cc4)cc3s2)CC1	112	105
CCOC(=O)c1cccc(NC(=O)c2ncoc2-c2ccco2)c1	105	99
COc1ccccc1CNC(=O)c1c2c(nc3ccccc13)C(=O)N(C1CCCCC1)C2	109	104
CCOC(=O)COc1ccc(F)cc1C(=O)c1ccn2nc(-c3ccc(Cl)cc3)cc2n1	103	105
CCn1c(C(=O)N2CCC(C(=O)N3CCN(c4ccc(OC)cc4)CC3)CC2)cc2sccc21	104	110
O=C(CN1CCSc2ccccc21)N1CCN(c2ccccc2)CC1	107	98
O=C(Nc1ccc(C(F)(F)F)cc1)C1CCN(c2cnccn2)CC1	113	111
COc1ccc(CCCc2nnc(SCC(=O)Nc3ccc(F)cc3)o2)cc1C	108	111
CC(C)(C)c1ccc(C(=O)Nc2ccc3c(c2)CCCN3C(=O)c2cccs2)cc1	104	107
COc1ccc(/C=C/c2nc(C#N)c(N3CCCCCC3)o2)cc1OC	113	114
COc1ccc(S(=O)(=O)N(CCc2ccccc2)CC(=O)NCc2ccccc2)cc1	107	107
O=C(CSc1nc(=O)[nH]c2c1CCC2)NCc1ccccc1	108	114
Cc1ccc(C)n1-c1c(C(=O)NCCC(C)C)sc2ncccc12	99	98
COc1ccc(N2CCN(C(=O)CCn3cnc4onc(-c5ccc(F)cc5)c4c3=O)CC2)cc1	99	98
CCc1nnc2c(Nc3ccc(Br)c(C)c3)nc3ccccc3n12	101	98
Cc1ccccc1CS(=O)(=O)c1ncc(Cl)c(C(=O)Nc2nnc(C(C)C)s2)n1	98	100

In another format: results already given
Results follow in this order: PV pol inh, PV pol inh intensity
CC(C)Cn1cc(NC(=O)N2CCN(c3cccc(C(F)(F)F)c3)CC2)c2ccccc2c1=O
    103, 105
CCOc1ccc(CNC(=O)C2CCN(S(=O)(=O)c3c(C)noc3/C=C/c3ccc(C)cc3)CC2)cc1OC
    106, 105
COc1ccccc1CNC(=O)c1c2c(nc3ccccc13)C(=O)N(C1CCCCC1)C2
    109, 104

(more compounds)
Molecule	PV pol inh	PV pol inh intensity
COc1cc(CNC(=O)c2ccc3nc(CCc4ccccc4)oc3c2)cc(OC)c1OC	101	106
Cn1ncc2c(Nc3cc(C(F)(F)F)ccc3Cl)ncnc21	105	105
CCCCCc1nc2ccccc2c(=O)n1-c1ccc(C)cc1	109	110
CC1CCC(NC(=O)C2(C)Cc3ccccc3C(=O)N2Cc2ccccc2Cl)CC1 (centres undefined)	114	116
Cc1ccccc1CN1C(=O)c2ccccc2S(=O)c2ccc(C(=O)NC3CCC(C)CC3)cc21 (centres undefined)	107	113
COc1cccc(CNC(=O)c2ccc3c(c2)sc2nc(-c4cccc(OC)c4)cn23)c1	111	111
COc1ccc(N2CCN(C(=O)CCn3nc(C)c(S(=O)(=O)N4CCCC4)c3C)CC2)cc1	110	109
COc1ccc(CCNC(=O)c2cc3c(=O)n4cccc(C)c4nc3n2C)cc1	109	113
Cc1cc(C)c(NC(=O)Cn2c(=O)oc3cc(S(=O)(=O)N4CCCCCC4)ccc32)c(C)c1	107	107
Cc1ccc(C(=O)c2cn(CC(=O)NCc3ccccc3)c3nc(C)ccc3c2=O)cc1	109	108
COc1cc(C2CC(=O)N(CC(=O)Nc3ccccc3F)c3ccccc3S2)cc(OC)c1OC (centres undefined)	108	109
Cc1ccc2sc(N3CCN(C(=O)CCS(=O)(=O)c4ccc(Cl)cc4)CC3)nc2c1C	103	109
Cc1ccc(NC(=O)CSc2nc3ccccc3nc2Cc2ccccc2)c(Cl)c1	98	104
O=C(NC1CCCC1)c1ccc2c(=O)n(Cc3ccccc3)c(SCc3ccccc3)nc2c1	110	116
CC(C)OCCCN1C(=O)c2[nH]nc(-c3ccccc3O)c2C1c1ccc(OCc2ccccc2)cc1 (centres undefined)	108	112
COc1ccc(CCNC(=O)c2cc(Sc3cccc(Cl)c3)nc3ccccc23)cc1OC	106	106
COc1ccc(S(=O)(=O)NCC(c2ccc(N(C)C)cc2)N2CCOCC2)cc1 (centres undefined)	103	107
O=C(Cn1nc(Cc2cccnc2)c2ccccc2c1=O)Nc1ccc(F)c(Cl)c1	109	111
O=C(NCCc1ccccc1)c1ccc(Cn2c(SCc3ccccc3)nc3cccnc32)cc1	117	113
Cc1ccccc1Oc1nc2c(c(=O)n(C)c(=O)n2C)n1Cc1ccc(Br)cc1	108	114
CSc1ccccc1NC(=O)C1=CC(c2ccc3c(c2)OCO3)=NS(=O)(=O)N1C	105	109
COCCNC(=O)Nc1cc(C(=O)NCc2ccc(C(C)C)cc2)ccc1N1CCCC1	112	103
COc1ccc(-c2cc3nccc(-c4cc(Cl)c(C)cc4O)n3n2)cc1	86*	86*
O=C(NCc1ccccc1Cl)c1ccc(CS(=O)(=O)c2ccc(Br)cc2)o1	108	104
C=Cc1ccc(Cn2c(=O)n(-c3ccc(C)cc3)c(=O)c3c2c2cc(OC)ccc2n3C)cc1	112	112
O=C1CCSC2(C(=O)N(Cc3ccc(F)cc3)c3ccccc32)N1c1ccccc1 (centres undefined)	111	112
CCOc1ccc(OCC)c(NS(=O)(=O)c2ccc3[nH]c(=O)ccc3c2)c1	112	99
CCCCN(CC)CCCNC(=O)c1cc2c(=O)[nH]c3ccccc3c2s1	98	96
CCN(CC)CCCNC(=O)CCc1c(C)n(CC)c2cc(-c3ccccc3OC)nn2c1=O	109	110
COc1cc(-c2noc(-c3ccc(NCCc4ccccc4)c([N+](=O)[O-])c3)n2)cc(OC)c1OC	113	119
COC(=O)c1scc(-c2ccc(C)cc2)c1S(=O)(=O)Nc1cc(OC)c(OC)c(OC)c1	105	111
CCOC(=O)CC(NC(=O)CCc1c(C)nc2cc(-c3ccccc3)nn2c1C)c1ccc(C)cc1 (centres undefined)	107	109
Cc1ccc(C)c(Cn2c3ccccc3c3cnn(CC(=O)NCCc4ccccc4)c(=O)c32)c1	103	106
CCCCOc1ccc(C(=O)NCCS(=O)(=O)N2CCN(c3ccc(F)cc3)CC2)cc1	109	106
COc1ccc(C)cc1NC(=O)c1nnn(-c2c(C)cccc2C)c1C	104	109
CCOC(=O)c1ccc(NC(=O)C(CC)Sc2nc3ncccc3[nH]2)cc1 (centres undefined)	109	105
Cc1ccc(NC(=O)Cn2cc3c(n2)CCCCC3)cc1	103	103
COc1cc(NC(=O)c2nn(C)c3c2COc2ccccc2-3)cc(OC)c1OC	113	111
CCOc1ccccc1NC(=O)CN1C=NS(=O)(=O)c2ccccc21	103	106
CCOc1cc(C(c2c(C)[nH]n(-c3ccccc3)c2=O)c2c(C)[nH]n(-c3ccccc3)c2=O)ccc1O	94	98
CC(C)(C)c1ccc(C(=O)N2CCCC(c3nc4c(nnn4Cc4cccc(F)c4)c(=O)[nH]3)C2)cc1 (centres undefined)	107	114
CCCc1cc(=O)[nH]c(Nc2ccc(O)cc2C)n1	109	98
CC1=C(c2ccc(Cl)cc2)S(=O)(=O)N=C1N1CCN(c2cccc(C)c2C)CC1	113	120
Cc1nnsc1C(=O)Oc1ccc(C(C)C)cc1	102	104
CCOC(=O)CSc1nc2c(sc3ccccc32)c(=O)n1Cc1ccc(C)cc1	110	114
O=C(NCCCc1nc2ccccc2n1Cc1ccccc1)C1CCCCC1	102	106
CCCSc1oc(-c2ccco2)nc1S(=O)(=O)c1ccc(Cl)cc1	105	107
Cc1ccc2c(c1)c1c(c(=O)n(Cc3ccccc3)c(=O)n1CC(=O)Nc1ccccc1F)n2C	108	103
CCc1ccc(Nc2nc3ccccc3c3nnc(C)n23)cc1	110	110
CCCc1cc(=O)[nH]c(SCc2nc(-c3ccc(C)cc3)no2)n1	107	106

(list continues)
Molecule	PV pol inh	PV pol inh intensity
COc1cc(NC(=O)N2CCC(CN3CCc4ccccc4C3)CC2)cc(OC)c1	106	108
CCOC(=O)C1CCN(C(=O)c2ccc(C)c(NC(=O)c3nsc4ccccc34)c2)CC1	100	100
Cc1cccc(N2CCN(C(=O)C3CCN(C(=O)c4cc5sccc5n4C)CC3)CC2)c1C	106	110
Cc1ccc(C)c(N2CCN(C(=O)Cc3c(C(=O)O)c(C)cn3C)CC2)c1	111	115
CCN(C(=O)CN1C(=O)c2ccccc2Sc2ccc(C(=O)OC)cc21)c1cccc(C)c1	110	101
COc1cc(Cl)c(C)cc1NC(=O)CCn1c(=O)c2cccn2c2cccnc21	112	115
COc1ccc(Cc2nc3c4cnn(-c5ccccc5Br)c4ncn3n2)cc1	118	119
Nc1nonc1-c1nc2ccccc2n1CC(=O)Nc1cccc(Cl)c1Cl	111	116
CCc1c(C)nc2nncn2c1Nc1ccc(C(C)C)cc1	104	103
Cc1ccc(-c2nc(N3CCN(c4ccccc4Cl)CC3)c3ccccc3n2)cc1	109	112
COC(=O)C1=C(CS(=O)(=O)c2cc(Cl)ccc2OC)NC(=O)NC1c1ccccc1 (centres undefined)	105	105
COc1ccc(C(=O)N2CCN(C(=O)COc3ccccc3)CC2)cc1OC	110	111
Cc1ccc(C)c(S(=O)(=O)c2nnn3c2nc(N2CCOCC2)c2sccc23)c1	108	98
COc1ccc(S(=O)(=O)N(CC(=O)Nc2cc(C)cc(C)c2)c2ccc(Cl)cc2)cc1	101	100
Cc1cccc(Cn2cccc2CNS(=O)(=O)c2ccccc2F)c1	113	113
Cc1cccc(NC(=O)CCCCCn2c(=O)[nH]c3ccsc3c2=O)c1	104	106
Cc1ccc(-c2cnc(NCc3c(F)cccc3Cl)n2C)cc1	102	103
CC(=O)N1c2ccc(S(=O)(=O)N3CCN(c4ccc(C)cc4C)CC3)cc2CC1C (centres undefined)	108	103
Cc1ccc(C(=O)N2CCC(c3c[nH]c4ccccc34)(c3c[nH]c4ccccc34)CC2)cc1	109	111
COc1cccc(NC(=O)c2oc3ccc(S(=O)(=O)N(C)C4CCCCC4)cc3c2C)c1	111	106
Cc1cc(Cl)ccc1OCCSc1nnc(-c2cccs2)o1	10*	37*
CCCN(CCC)C(=O)Cn1c(=O)n(-c2ccccc2)c(=O)c2c3c(sc21)CCCC3	107	107
Cc1ccc(-c2nnc(Nc3cccc(O)c3)c3ccccc23)cc1S(=O)(=O)N1CCOCC1	106	108
COc1ccc(C)cc1NC(=O)COCc1cc(-c2ccc(F)cc2)on1	113	114
CCn1cc2nc(SCc3cc(C)ccc3C)n(Cc3ccc(Cl)cc3)c(=O)c2n1	108	107

Grouped by structure, the compounds so far with a tert-butyl group (2)
Molecule	PV pol inh	PV pol inh intensity
CC(C)(C)c1ccc(C(=O)Nc2ccc3c(c2)CCCN3C(=O)c2cccs2)cc1	104	107
CC(C)(C)c1ccc(C(=O)N2CCCC(c3nc4c(nnn4Cc4cccc(F)c4)c(=O)[nH]3)C2)cc1 (centres undefined)	107	114

Profiles, quoted from the list. Screens in order: PV pol inh | PV pol inh intensity
Record of `CCOC(=O)C1CCN(C(=O)c2ccc(C)c(NC(=O)c3nsc4ccccc34)c2)CC1` → 100 | 100
Record of `COc1cc(Cl)c(C)cc1NC(=O)CCn1c(=O)c2cccn2c2cccnc21` → 112 | 115
Record of `Cc1ccc(-c2nnc(Nc3cccc(O)c3)c3ccccc23)cc1S(=O)(=O)N1CCOCC1` → 106 | 108
Record of `COC(=O)C1=C(CS(=O)(=O)c2cc(Cl)ccc2OC)NC(=O)NC1c1ccccc1` (centres undefined) → 105 | 105
Record of `CCn1cc2nc(SCc3cc(C)ccc3C)n(Cc3ccc(Cl)cc3)c(=O)c2n1` → 108 | 107

Remaining list, next part.
Molecule	PV pol inh	PV pol inh intensity
CC(C)CCNC(=O)CSCc1cnn(-c2ccccc2)c1-n1cccc1	114	117
COc1ccc(Cc2nc3ccc(C(=O)NCc4cc(Br)ccc4OC)cc3o2)cc1	107	107
Cc1cn2c(=O)cc(COc3ccccc3NC(=O)c3ccc(Cl)cc3)nc2s1	106	111
Cc1cc(N2CCC(C(=O)Nc3ccc(F)cc3F)CC2)n2nc(C)c(-c3ccc(Cl)cc3)c2n1	112	112
CCc1ccc(CNc2ncc(-c3cccc(OC)c3)n2C)cc1	102	100
Cc1nc2ccccc2c(=O)n1-c1ccc(NC(=O)c2cccc([N+](=O)[O-])c2)cc1	109	113
COc1cc(NC(=O)CSc2c3c(nc4ccccc24)CCC3)cc(OC)c1OC	100	103
O=C(O)c1ccc(NC(=O)c2ccc(Cl)c(S(=O)(=O)N3CCCCCC3)c2)cc1	104	104
Cc1cccc(NC(=O)Cn2nc(-c3ccccc3)c3cnc4ccccc4c32)c1	99	103
Nc1c(C(=O)c2ccccc2)sc(Nc2ccc(Cl)c(Cl)c2)c1C(=O)Nc1ccccc1	108	107
CCOC(=O)c1c(C)[nH]c(C)c1S(=O)(=O)N(C)CC(=O)N1CCN(c2cccc(C)c2C)CC1	104	107
Cc1nn(-c2ccccc2)c2c1N(CC(=O)N1CCN(c3ccccc3F)CC1)C(=O)CS2	101	97
COc1ccc(OCc2ccc(-c3nc(C#N)c(NCc4ccccc4)o3)o2)cc1	108	106
